# Compound activity as filed in PubChem BioAssay.
# gsp antag – gsp mutant antagonism; Potency, µM (doses to about 76.9 µM), for inactives: top-dose activity change, negative = inhibition, actives largely listed as inhibitors; hit rate 0.4% among 340,000; gsp-mutant cells, cAMP HTRF, 30 min; control for the full effect not named in the record; active = falling curve of any shape with a large fitted effect; inconclusive = falling curve, mostly with a smaller effect; inactive = flat or rising curve; cell line not stated here;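 also: intracellular cAMP measured with PDE inhibitor Ro 20-1724 present during compound exposure; potency is read from the fitted curve at half-maximal effect; % is scaled to controls: 0 for no effect and ±100 for the full control effect; nearly all actives have a fitted effect of over 65% in size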
#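 HTRF cAMP read-out (cAMP-d2 plus anti-cAMP antibody-K in lysis buffer, 30 min RT). Before lysis, cells are exposed to compounds with […] for 30 min at 37C in DPBS containing Ca/Mg, BSA and Tween 20.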
# D2 ag – human D2 receptor agonism in beta-arrestin assay | P14416 | DiscoveRx PathHunter D2 beta-arrestin, luminescence, 90 min; 100% = 57 uM dopamine signal | activation, % (test concentration not listed) | hit rate 0.084% among 360,000 | AID 624465; in the data active = activation above about 40%; inconclusive = about 15% to 40%; inactive = below about 15%; also: compound concentration not given in the record; the text of the record calls up to 30% inactive
# Target sequence (P14416 whole entry, looked up): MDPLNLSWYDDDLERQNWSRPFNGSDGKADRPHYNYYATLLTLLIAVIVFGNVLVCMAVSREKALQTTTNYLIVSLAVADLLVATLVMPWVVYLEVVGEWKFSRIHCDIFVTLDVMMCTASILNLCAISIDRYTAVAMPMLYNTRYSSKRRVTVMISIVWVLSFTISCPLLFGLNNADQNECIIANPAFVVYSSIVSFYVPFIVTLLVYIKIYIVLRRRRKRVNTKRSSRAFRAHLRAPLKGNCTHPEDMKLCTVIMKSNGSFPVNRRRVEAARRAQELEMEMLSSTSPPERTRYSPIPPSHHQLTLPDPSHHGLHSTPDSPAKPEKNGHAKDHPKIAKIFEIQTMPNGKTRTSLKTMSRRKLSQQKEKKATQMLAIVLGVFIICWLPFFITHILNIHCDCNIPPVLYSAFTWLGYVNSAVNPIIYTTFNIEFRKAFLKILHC
#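 DiscoveRx PathHunter D2 beta-arrestin cells (2,100/well) attached overnight, then compound-stimulated 90 min at 37 C in HBSS/10 mM HEPES/0.1% Tween-20 buffer; beta-galactosidase complementation read by luminescence after 1 h at ambient temperature. Dopamine 57 uM final (EC100) as control.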
# Six1-Eya2 inh – Six1/Eya2 interaction inhibition; hit rate 0.56% among 360,000; Q15475+O00167; AID 651725; AlphaScreen GST-Six1/His-Eya2 binding, biochemical; stronger effect = lower value; control for the full effect not named in the record; activity change, % (concentration not given with the values); in the data active = activity change below about -65%; inconclusive = about -30% to -65%; inactive = above about -30%; also: % is scaled to controls: 0 for no effect and ±100 for the full control effect
#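 Compounds are tested against tagged Six1 and Eya2 proteins bridged by glutathione donor and nickel acceptor beads; after a one-hour incubation at 37 °C without light, AlphaScreen emission is recorded.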
# CtBP-E1A blk – CtBP/E1A binding inhibition; AlphaScreen GST-E1A/His-CtBP binding, 1536-well; stronger effect = lower value; control for the full effect not named in the record; activity change, % (test concentration not listed); hit rate 0.49% among 340,000; AID 651724; in the data active means activity change below about -65%; inconclusive means about -30% to -65%; inactive means above about -30%; also: % is scaled to controls: 0 for no effect and ±100 for the full control effect; compound concentration not given in the record
#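 Steps: dispense buffer (Tris pH 8.0, NaCl 300 mM, TCEP 1 mM, BSA, Tween 20); add 5X protein mix (GST-E1A, His-CtBP, 125 nM each); pin 23 nL compound; 2 h at 37 °C, dark; add 5X beads (50 ug/mL); 1 h; read.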
# D2 potentiator – positive allosteric modulators of human D2 dopamine receptor. hit rate 0.23% among 360,000. P14416. DiscoveRx D2 beta-arrestin cells, luminescence, 90 min; 100% = 57 uM dopamine signal. potentiation, % (test concentration not listed); active = potentiation of 50% or more; inconclusive = 30% to 50%; inactive = 30% or less;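 also: compound concentration not given in the record; tested on top of an EC20 dose of dopamine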
#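 PathHunter beta-arrestin assay in DiscoveRx D2 cells. Compounds were added with an EC20 of dopamine (50 nM final) for 90 min at 37 deg C. Luminescence was read 1 h after detection reagent, with 57 uM dopamine as the EC100 control.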
# gsp agonist – activates gsp, the McCune-Albright syndrome mutation | Potency, µM (doses to about 76.9 µM), for the others: at the highest dose activation (cAMP increase), most hits filed as activators | hit rate 0.13% among 340,000 | gsp mutant cells, cAMP HTRF, 30 min; control for the full effect not named in the record; active = well fitted activation curve with a large enough effect; inconclusive = small, poorly fitted or top-dose-only effect, or another doubt; inactive = no such curve, though single readings can be large or run the other way; cell line not stated here;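 also: phosphodiesterase inhibitor Ro 20-1724 added with compounds to block cAMP breakdown; potency is read from the fitted curve at half-maximal effect; nearly all actives have a fitted effect of over 60% in size; about a fifth of the inactives were tested at one dose only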
#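 Cells in DMEM/10% FBS with G418 were pretreated with compounds in DMSO plus […] (300 uM stock) for 30 min at 37C. cAMP was measured by HTRF (cAMP-d2 plus anti-cAMP antibody-K) after 30 min at room temperature.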
# * marks the source's active call; other numbers are inactive results; ? = inconclusive; . = not tested or not shown; [ ] = another dose, or the depositor's remark.
SMILES	gsp antag	D2 ag	Six1-Eya2 inh	CtBP-E1A blk	D2 potentiator	gsp agonist
CCOC(=O)c1c(CCl)nc2ccccc2c1-c1ccccc1	-8.7%	-2.8	-1.1	0.5	-9.2	6.4%[15.4 µM]
CC(C)N1C(=O)S/C(=C/c2ccc(Sc3nc4ccccc4[nH]3)o2)C1=O	?	-5.1	-3.7	-2.0	-28.6	2.7%
O=C(CSc1cccc(C(F)(F)F)c1)Nc1ccc(Cl)cc1Cl	-12.8%	0.6	5.8	13.8	8.7	-3.8%
O=c1cc(CN2CCN(c3ccccc3F)CC2)c2c(ccc3ccccc32)o1	.	-7.5	5.0	2.3	-9.9	.
C=CC[n+]1c(C)csc1Nc1cccc(Br)c1	-7.4%	-0.4	?	-21.6	-2.2	?
Cc1c(C(=O)N2CCCCC2)sc(NC(=O)C2CC2)c1C#N	5.6%	3.1	3.0	1.2	-7.0	-36.0%[inhibitor]
COc1ccc(C(CNC(=O)c2cc(S(=O)(=O)N3CCCCC3)ccc2C)N2CCCC2)cc1 (configuration not stated)	-11.3%	-3.3	-0.8	0.0	-21.9	3.6%
Cc1c(NC(=O)c2ccc(N(Cc3ccccc3)S(C)(=O)=O)cc2)c(=O)n(-c2ccccc2)n1C	7.7%	-2.8	-0.9	9.6	-4.3	26.8%
Cc1cc2c(OCC(O)CNC3CCCCC3)cccc2[nH]1 (configuration not stated)	?	-3.2	-23.1	-17.6	-11.5	-55.5%[inhibitor]
CCOC(=O)c1cc(CC)sc1N1C(=O)CC(Sc2ncccc2C(=O)O)C1=O (configuration not stated)	-4.4%	2.8	0.0	7.2	-3.2	?
CCN(c1ccccc1)S(=O)(=O)c1ccc(OC)c(NC(=O)c2cccs2)c1	-19.1%	-1.0	-28.9	0.0	2.5	-2.2%[15.4 µM]
O=C(CN(c1ccccc1)S(=O)(=O)c1ccc(Cl)cc1)Nc1cccnc1	-5.6%	-2.8	3.0	-0.3	-10.9	0.3%[15.4 µM]
COc1ccc(-n2nnnc2C(c2cccc(OC)c2OC)N2CCN(C/C=C/c3ccccc3)CC2)cc1 (configuration not stated)	.	-3.6	-21.4	-12.0	-16.6	.
O=C(c1cc2c(s1)-c1ccccc1OC2)N1CCN(c2ccccn2)CC1	-11.7%	-0.6	2.8	2.8	-3.3	?
O=S(=O)(NCc1ccccc1)c1ccc(S(=O)(=O)N(Cc2ccccn2)C2CCCC2)cc1	0.9%	2.9	-0.9	5.8	-1.5	-8.2%

# Shown with values under each structure: entries from further up.
# Second line of a record: gsp antag	D2 ag	Six1-Eya2 inh	CtBP-E1A blk	D2 potentiator	gsp agonist
- COc1ccc(C(CNC(=O)c2cc(S(=O)(=O)N3CCCCC3)ccc2C)N2CCCC2)cc1 (configuration not stated)
 : -11.3%	-3.3	-0.8	0.0	-21.9	3.6%
- Cc1c(NC(=O)c2ccc(N(Cc3ccccc3)S(C)(=O)=O)cc2)c(=O)n(-c2ccccc2)n1C
 : 7.7%	-2.8	-0.9	9.6	-4.3	26.8%
- Cc1cc2c(OCC(O)CNC3CCCCC3)cccc2[nH]1 (configuration not stated)
 : ?	-3.2	-23.1	-17.6	-11.5	-55.5%[inhibitor]
- CCOC(=O)c1cc(CC)sc1N1C(=O)CC(Sc2ncccc2C(=O)O)C1=O (configuration not stated)
 : -4.4%	2.8	0.0	7.2	-3.2	?
- CCN(c1ccccc1)S(=O)(=O)c1ccc(OC)c(NC(=O)c2cccs2)c1
 : -19.1%	-1.0	-28.9	0.0	2.5	-2.2%[15.4 µM]
- O=C(CN(c1ccccc1)S(=O)(=O)c1ccc(Cl)cc1)Nc1cccnc1
 : -5.6%	-2.8	3.0	-0.3	-10.9	0.3%[15.4 µM]
- COc1ccc(-n2nnnc2C(c2cccc(OC)c2OC)N2CCN(C/C=C/c3ccccc3)CC2)cc1 (configuration not stated)
 : .	-3.6	-21.4	-12.0	-16.6	.
- O=C(c1cc2c(s1)-c1ccccc1OC2)N1CCN(c2ccccn2)CC1
 : -11.7%	-0.6	2.8	2.8	-3.3	?
- O=S(=O)(NCc1ccccc1)c1ccc(S(=O)(=O)N(Cc2ccccn2)C2CCCC2)cc1
 : 0.9%	2.9	-0.9	5.8	-1.5	-8.2%

# Continued.
SMILES	gsp antag	D2 ag	Six1-Eya2 inh	CtBP-E1A blk	D2 potentiator	gsp agonist
CCc1ccc(-c2nc(CS(=O)CC(=O)NCCc3ccccc3)c(C)o2)cc1 (configuration not stated)	1.4%	1.1	-2.1	0.6	-2.5	15.7%
Cc1ccc(NC(=O)Nc2ccccc2C#N)c(Cl)c1	8.1%	-0.2	-0.3	8.7	-8.3	-2.3%
CC(C)Cn1c(SCC(=O)NC(=O)NC2CCCC2)nc2ccccc21	?	0.2	-2.8	3.4	2.9	-23.0%
CCOC(=O)C1=C(c2ccc(OC)cc2)C(=O)c2ccccc2C1=O	7.1%	10.1	?	-26.7	10.4	29.5%
C=C1CC(C)OC(c2ccccc2OCC(O)CN2CCCCC2)C1 (configuration not stated)	6.5%	-1.3	-0.8	-0.6	5.2	2.3%
CC(=O)NCC(=O)OCC(=O)N1c2ccccc2Sc2ccccc21	4.4%	5.1	-10.2	-16.3	-11.3	?
Cc1ccc2c(c1)c(N=Nc1cccc(C(=O)O)c1)c(O)n2C	-21.9%	-1.9	-27.7	-23.6	-7.2	?
O=C(Cc1ccccc1)NCC(=O)OCC(=O)c1ccc(F)cc1	-1.7%	-2.4	1.4	6.7	-11.1	-19.0%
Cc1ccc2nsnc2c1S(=O)(=O)N1CCN(CCc2ccccc2)CC1	10.8%	-3.0	-13.5	-9.4	-24.0	-52.3%[inhibitor]
CCOC(=O)N1CCN(C(=O)c2ccc3nc4cc(Cl)ccc4c(=O)n3c2)CC1	7.7%	-1.3	-1.5	6.3	3.8	?
Cc1sc2nc(SCC(=O)OC(C)C)n(C)c(=O)c2c1C	9.0%	-4.7	-0.2	0.7	-22.5	-4.6%
CCc1nc(CN2CCN(c3ccc(C(F)(F)F)cn3)CC2)c(C)[nH]1	8.2%	-3.2	-0.1	.	-19.2	26.8%
CC1=C(C(=O)Nc2ccccc2)C(c2ccncc2)C(C#N)=C(SCC(=O)NC2CC2)N1 (configuration not stated)	-5.4%	-3.1	-0.3	0.1	-11.4	-83.8%[inhibitor]
COc1cccc(CN2CCNC(=O)C2CC(=O)N(C)C2CCOCC2)c1 (configuration not stated)	12.4%	1.3	0.7	-6.6	-9.9	17.5%
COc1ccc(C(C)NS(=O)(=O)Cc2ccccc2)cc1 (configuration not stated)	8.0%	3.4	-10.2	-2.0	-1.1	19.9%[15.4 µM]
O=C1CCCN1CC(O)CS(=O)(=O)c1ccc(Cl)cc1 (configuration not stated)	11.1%	-3.1	-0.1	9.4	-8.5	9.9%
CCCn1c(=O)c2c(nc3n2CCCN3Cc2ccccc2)n(C)c1=O	-6.3%	3.5	-19.0	-23.4	-10.4	6.2%
COc1cc2c(cc1OC)CN(CC(=O)NC(=O)NCc1ccco1)CC2	1.6%	0.4	-1.8	-2.8	2.9	-14.5%
COc1cccc(NC(=O)CN(C)C(=O)CSCC(=O)Nc2ccc(C)cc2)c1	6.8%	-1.3	-7.4	-5.5	-3.3	-2.2%
CC1=CN2C(=NC(=O)CC2(C)C(=O)N(CC(=O)NC2CCCC2)Cc2ccccc2)C=C1 (configuration not stated)	-6.3%	-5.4	-15.5	-1.5	-8.5	-6.1%[15.4 µM]
Cc1cc(NCc2ccccc2)nc2ccccc12	18.1%	-6.9	29.5	55.0	-43.2	1.6%
CCOCC(=O)Nc1ccccc1C(=O)OCC	-5.4%	-0.6	15.4	-4.3	10.6	-21.0%
COc1ccc(NC(C)=O)cc1NC(=O)c1ccc2ccccc2c1	-16.1%	1.8	-0.8	.	?	-28.8%
COC(=O)c1ccc(-n2nc(C(F)(F)F)c3c2-c2ccoc2CC3)cc1	-6.3%	-3.9	-3.7	-2.6	-3.9	8.7%
CCCCOC(=O)c1ccc(NC(=S)NC(=O)c2c(Cl)cnn2C)cc1	-16.3%	-4.1	2.3	-0.4	-9.5	11.1%
CC1(NC(=O)c2ccccc2)CCN(CCCc2ccccc2)C1=O (configuration not stated)	14.0%	-3.2	-3.6	2.4	-1.6	7.2%
O=C(Cc1ccc(O)cc1)NCCNC(=S)NCc1ccccc1	19.1%	-0.9	-2.5	-3.5	-3.7	-6.0%[15.4 µM]
CC12CCC(C(=O)N(CC(O)CN3CCCCC3)C1=O)C2(C)C (configuration not stated)	10.9%	0.7	6.4	-4.7	-2.8	-15.5%
C[C@H](CO)N1C[C@H](C)[C@@H](CN(C)S(C)(=O)=O)Oc2ccc(NC(=O)Nc3ccccc3)cc2C1=O	8.2%	0.2	3.9	6.7	-2.6	.
CSc1nnc2c(n1)OC(c1ccsc1)N(C(C)=O)c1ccccc1-2 (configuration not stated)	-14.9%	0.2	6.5	-0.5	-20.5	0.7%
Cc1ccc2nc(NC(=O)c3ccc(S(=O)(=O)N4CCCc5ccccc54)cc3)sc2c1	2.2%	1.8	2.9	0.7	-4.4	-15.8%[15.4 µM]
CC1CCCCN1C(=O)Cn1cc(C(=O)c2ccco2)c2ccccc21 (configuration not stated)	-5.0%	-3.2	-0.6	-0.1	14.0	?
O=C(COC(=O)C1CC(O)CN1C(=O)Oc1ccccc1)c1ccc(Br)cc1 (configuration not stated)	3.2%	-1.4	10.1	1.2	-7.5	-19.5%
CCN(C(=O)c1ccc(Cl)c([N+](=O)[O-])c1)c1ccccc1	-9.1%	0.1	-3.3	0.2	0.0	-7.4%[15.4 µM]
CNc1ncnc2c1ncn2[C@H]1CN(Cc2ccco2)C[C@@H](CO)O1	.	-2.7	6.4	5.2	-13.9	.
CC1=C(C(=O)NC2CCCc3c2cnn3-c2cc(F)cc(F)c2)OCCO1 (configuration not stated)	1.1%	-5.5	-3.9	5.6	-7.2	-0.1%[15.4 µM]
CCCN1C2CCCC1CC(NC(=S)Nc1cc(C)cc(C)c1)C2 (configuration not stated)	2.6%	-2.2	-4.0	-5.5	-10.4	-19.2%
Cn1c(Cc2ccccc2)nnc1SCC(=O)NC1CC1	9.7%	2.2	0.1	-1.6	-2.9	8.8%
N#Cc1c2c(c(-c3ccccc3)[nH]c1=O)CCCC2	0.5%	-2.7	10.8	-9.1	-5.4	7.2%
Cc1ccccc1NC(=O)c1cccc2nc3ccccc3nc12	7.2%	-0.6	-29.4	?	0.4	-0.4%
O=C(Nn1cnnc1)c1cc(-c2cccc(Br)c2)nc2ccccc12	-1.7%	-4.7	2.5	-8.3	-11.8	8.9%
